miR-21 reporter – raises the signal of a miR-21 reporter; HeLa miR-21 FLuc reporter, luciferase, 48 h; Potency, µM (series often up to 38.3 µM), without a hit: top-dose reporter change, positive = more light; 340,000 tested, under 10 active; active = well fitted rising curve with a large enough effect; inconclusive = small, poorly fitted or top-dose-only effect; inactive = no such curve, though single readings can be large or run the other way;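 also: % of control where 0% means no effect; miR-21 action dims this reporter so a rising signal means less miR-21 action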
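Luminescence from a firefly luciferase reporter carrying a miR-21 binding site downstream, stably expressed under a CMV promoter in HeLa cells that make miR-21 endogenously, reports miRNA modulation after 48 h compound exposure up to approximately 40uM final.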
Rango dissoc inh – inhibitors of RanGTP-induced Rango-importin beta complex dissociation. O95149+P62826. Biochemical FRET Rango-importin beta, RanGTP-induced dissociation. Potency, µM (highest dose often 46.1 µM), for inactives: at the highest dose activity change, negative = inhibition. actives 0.071% (n = 340,000). AID 540253; active means falling FRET ratio curve, often poorly fitted, with flat reads before Ran was added; inconclusive means other falling curves, or compound fluorescence or quenching; inactive means flat or rising ratio curve;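 also: potency is read from the fitted curve at half-maximal effect; % of control where 0% means no effect; nearly all actives have a fitted effect of over 45% in size; -100% = wells without RanGTP and RCC1; the record marks most hits as doubtful in a second field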
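Rango FRET biosensor (snurportin-1 IBB flanked by N-terminal EYFP and C-terminal CFP10) at 0.1 uM, with 0.25 uM importin beta in PBS, 1mM DTT, 0.02% Tween-20, 0.1% BSA. 0.6 uM Ran, 2mM GTP and 0.2 uM RCC1 were then added for 45 min at room temperature. Inhibition read as loss of FRET rise.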
Rango complex inh – prevents formation of the Rango-importin beta complex. actives 0.031% (n = 340,000). Potency, µM (series often up to 92.2 µM), for the others: at the highest dose inhibition of complex formation. Rango CFP/YFP FRET sensor + importin beta, 45 min. AID 540263. Q14974; active = rising FRET ratio curve, often small or poorly fitted; inconclusive = mostly compound fluorescence or quenching in the first reads; inactive = flat curves in all reads;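 also: potency is read from the fitted curve at half-maximal effect; 0% = DMSO wells and 100% = buffer wells lacking importin beta; nearly all actives have a fitted effect of over 15% in size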
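Inhibition scored from the CFP 486 nm/YFP 530 nm FRET ratio 45 min after adding 0.125 microM importin beta to 50 nM Rango biosensor preincubated 5 min with compound (room temperature, PBS with DTT, Tween-20, BSA). No-importin wells as positive control.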
GLA inh pH 4.5 – blocks human alpha-galactosidase A at pH 4.5 | AID 1467 | P06280 | 230,000 tested, under 10 active | activity change, negative = inhibition, % at 105 µM | purified enzyme, 4-MU-alpha-Gal fluorescence, pH 4.5; inconclusive = small, poorly fitted or top-dose-only inhibition, or a rising curve; inactive = flat fitted curve, though single readings scatter; no compound was filed as active;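 also: 0% = full activity with enzyme and -100% = basal without enzyme; dose as in the result columns while the protocol names 77 µM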
Target sequence (P06280 whole entry, looked up): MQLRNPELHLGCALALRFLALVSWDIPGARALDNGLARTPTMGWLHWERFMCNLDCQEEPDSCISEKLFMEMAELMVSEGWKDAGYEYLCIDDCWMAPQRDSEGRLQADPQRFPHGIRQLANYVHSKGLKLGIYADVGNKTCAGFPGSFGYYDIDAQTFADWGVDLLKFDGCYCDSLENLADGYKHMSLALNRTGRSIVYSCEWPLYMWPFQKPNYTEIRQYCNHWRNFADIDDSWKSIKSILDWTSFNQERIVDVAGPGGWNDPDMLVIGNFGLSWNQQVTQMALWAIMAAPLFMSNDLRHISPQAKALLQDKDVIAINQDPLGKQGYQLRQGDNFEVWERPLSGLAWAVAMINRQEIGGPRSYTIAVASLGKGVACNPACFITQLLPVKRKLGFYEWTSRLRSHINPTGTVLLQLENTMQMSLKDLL
Starred values were filed as active, the others as inactive; ? = inconclusive; · = not tested or not shown; & = joins results of further samples; [ ] = another dose, or the depositor's remark.

Screens in order: miR-21 reporter, GLA inh pH 4.5, Rango complex inh, Rango dissoc inh
- COc1ccc(N=Nc2c(O)[nH]c(=S)[nH]c2=O)cc1
    -20%, ?, 10.0%, 5%
- CC(C)(O)C1C2OC(=O)C1C1(O)CC3OC34C(=O)OC2C14C (configuration not stated)
    ·, ·, -1.8%, 0%
- Cc1[nH]c2ccccc2c1CN1CCCCC1
    ·, ·, 1.8%, 2%
- O=C1NC(=O)C2(CCN(S(=O)(=O)c3ccccc3)CC2)C(=O)N1
    ·, ·, 4.3%, 2%
- CC(NCc1ccc(Cl)c(Cl)c1)C(O)c1ccccc1 (configuration not stated)
    -3%, -1, -1.3%, 5%
- COc1ccc(CNc2oc(-c3cccc4ccccc34)nc2P(=O)(OC)OC)cc1
    4%, ?, 3.9%, -2%
- O=C1C2C3CCC(C3)C2C(=O)N1c1ccc(OS(=O)(=O)c2ccccc2)cc1 (configuration not stated)
    -21%, -12, 1.5%, 0%
- Cc1cc(=O)[nH]c(CCl)n1
    5%, 3, 1.6%, 0%
- COc1ccc(C(=O)C(C)(C)NO)cc1
    -5%, -1, 5.8%, 1%
- CN1CCN(c2ccc([N+](=O)[O-])c(Sc3ccccn3)c2)CC1
    6%, -12, 1.0%, 5%
- CC(=O)N1CCN(CCN=Cc2c(O)n(-c3ccc(F)cc3)c(=S)[nH]c2=O)CC1
    -4%, ·, -2.3%, 2%
- COc1ccc(-c2csc(NC(=O)COC(=O)Cc3ccccc3)n2)cc1OC
    -27%, 3, ·, ·
- CCOC(=O)c1ccc(N2C(=O)CC(N3CC=C(c4ccc(F)cc4)CC3)C2=O)cc1 (configuration not stated)
    -9%, -3, -0.1%, -18%
- COC(=O)C1=C(c2ccccc2)C[C@@H]2CC[C@H]1N2C(=O)NCCCOC(C)C
    ·, ·, -0.8%, 2%
- COc1ccc(OC)c(N2Cc3ccccc3C2=N)c1
    0%, 5, -0.5%, -1%
- CN1C(=O)C(=Cc2ccccc2Oc2ccc(Cl)cc2)C(=O)N(C)C1=O
    0%, 0, -0.7%, 4%
- CN(C)Cc1c[nH]c2ccc([N+](=O)[O-])cc12
    ·, ·, 3.5%, 41%
- O=C(C(=O)N1CCOCC1)c1cn(Cc2ccccc2F)c2ccccc12
    1%, ·, -1.1%, 18%
- COc1ccc(C2C(C(=O)N3CCC4(CC3)OCCO4)c3cc(OC)c(OC)cc3C(=O)N2C)cc1 (configuration not stated)
    -6%, -2, 3.8%, -4%
- O=C(NC(=S)N1C[C@H]2C[C@H](C1)c1cccc(=O)n1C2)c1ccc(Cl)cc1
    -2%, ·, 4.2%, -2%
- CCC1(CC)C(=N)N(C)C(=O)NC1=O
    -5%, -2, -1.3%, -2%
- Cc1nc2nc(C)c(CCC(=O)N3CCC4(CC3)OCCO4)c(C)n2n1
    2%, 5, 1.7%, -3%
- COc1ccccc1NC(=O)c1cn(CCC#N)nc1-c1ccc(F)cc1
    5%, ·, -0.3%, 1%
- Cc1cccn2c(=O)c3cc(C(=O)N4CCC5(CC4)OCCO5)n(C)c3nc12
    12%, 1, 4.7%, ?
- CCC(=O)c1ccc(OC(=O)N(C)c2ccccc2)cc1
    -54%, 5, 0.0%, 1%
- O=C1N(c2ccc(Cl)cc2)C(c2cccnc2)N2CCCN12 (configuration not stated)
    -24%, -5[21.1 µM], -1.1%, -14%
- CN(Cc1ccccc1)Cc1ccccc1OC(=O)N(C)C
    -6%, -7, 0.3%, 0%
- COC(=O)C1=C(c2cccc(C#N)c2)C[C@@H]2CC[C@H]1N2C(=O)N1CCC(O)CC1
    ·, ·, 0.1%, -13%
- CCOP1(=S)Oc2cc3c(cc2C(C(=O)OC)(C(F)(F)F)O1)OCO3 (configuration not stated)
    -4%, -6, -2.1%, 23%
- O=C1NC(=O)N(CCc2ccc(F)cc2)C(=O)/C1=C\C=C\c1ccccc1
    0%, -1, -2.2%, -9%
- c1csc(CN2CCNCC2)c1
    -1%, -1, -0.5%, -2%
- COc1ccc2cc1Oc1ccc(cc1)C[C@H]1c3cc(c(OC)cc3CCN1C)Oc1c(O)c(OC)cc3c1[C@H](C2)N(C)CC3
    ?, -5, 5.4%, -4%
- Cc1nn(CC(C)C)c(Cl)c1C(=O)NC1CCC(C)CC1 (configuration not stated)
    ·, ·, -1.2%, 26%
- CCOP(=O)(OCC)C(NC(=O)C(C)C)C(Cl)(Cl)Cl (configuration not stated)
    1%, -8, -3.8%, 3%
- COc1cc(CN2CCN(c3cc(C)ccc3C)CC2)ccc1O
    25%, -9, -0.7%, 9%
- Cn1c(O)c(C=NC2CCCCC2)c(=O)[nH]c1=S
    0%, 8, -0.2%, 0%
- COCCNC(=O)Cn1cc(C(=O)c2ccccc2F)c2ccccc21
    6%, ·, 1.9%, -4%
- COc1ccc(/C=C2/C(=O)NC(=S)N(C3CC3)C2=O)cc1CN1C(=O)c2ccccc2C1=O
    -2%, 0, -2.2%, -12%
- CCC(C)N1C(=O)NC(=O)C2(Cc3c(ccc4ccccc34)N(C)C2)C1=O (configuration not stated)
    9%, -6, -0.6%, -7%
- C=C(C)[C@H]1CN[C@H](C(=O)O)[C@H]1CC(=O)O
    ·, 2&-9, ?, -9%
- Cc1oc(-c2ccccc2)nc1CN1C(=O)CN=C(c2ccccc2)c2ccccc21
    5%, -6, -2.5%, -1%
- O=C1CCN(C(=O)Cc2ccccc2[N+](=O)[O-])CC1
    -2%, 2, 0.4%, 1%
- C=C1C(=O)O[C@@H]2C[C@@H](C)[C@H]3C=CC(=O)[C@]3(O)C[C@@H]12
    ?, -5, -2.7%, -7%
- O=C1NC(=S)NC(=O)C12C(c1ccc(F)cc1)NC(=S)NC2c1ccc(F)cc1 (configuration not stated)
    1%, -17, 3.6%, -10%
- C(CCc1nn[nH]n1)CCc1nn[nH]n1
    2%, 3, 1.5%, -3%
- C/C(=N\NC(=O)c1ccccc1)c1c(O)n(Cc2ccccc2)c(=O)[nH]c1=O
    -36%, -2, 0.0%, 0%
- CCC(=Nc1cccc(C(F)(F)F)c1)c1c(O)n(C)c(=O)n(C)c1=O
    -2%, 5, ?, 0%
- CNS(=O)(=O)c1ccc(N=Cc2c(O)n(-c3ccc(C)cc3)c(=O)[nH]c2=O)cc1
    3%, -1, 3.6%, -10%
- CNC(=O)Oc1ccc2ncccc2c1
    -9%, -9, -1.2%, 19%
- O=[N+]([O-])c1ccc(NCc2ccccc2)c2nonc12
    0%, 2, ?, ?
- CN1CCN(c2nc(Cl)ncc2F)CC1
    1%, -13, 2.5%, -5%
- CCOC(=O)C1CCCN(c2ccc([N+](=O)[O-])c3nonc23)C1 (configuration not stated)
    3%, 0, ?, ?
- CNC(C)Cc1ccccc1Sc1ccc(O)cc1 (configuration not stated)
    10%, -2, 5.3%, 0%
- Cc1cccc(NC(=O)N2CCCC2)c1
    -3%, 2, -1.1%, 1%
- CN1C2CCC1CC(OC(=O)CCN1CCCC1)C2 (configuration not stated)
    1%, 8, -0.3%, -5%
- COC(=O)C1=C(c2ccccc2)C[C@@H]2CC[C@H]1N2C(=O)NCc1ccc(F)cc1
    ·, ·, -2.6%, -3%
- O=c1ccc2c(O)c3ccoc3cc2o1
    ·, -3, -2.3%, 2%
- C/C(=N\N1CCCCCC1)c1c(O)n(C)c(=O)n(C)c1=O
    -1%, -15, ·, ·
- Cc1ccc(-c2cc(-c3ccc(C)cc3)[n+](C)o2)cc1
    ?, 2, 1.9%, -2%
- C[C@]1(O)CCC2C3CC[C@@H]4CC(=O)CC[C@]4(C)C3CC[C@@]21C (some centres not stated)
    ·, ·, -1.7%, 3%

Next part:
Screens in order: miR-21 reporter, GLA inh pH 4.5, Rango complex inh, Rango dissoc inh
- Cc1cc(/C=C2\C(=O)NC(=O)N(Cc3ccccc3Cl)C2=O)c(C)n1-c1ccc(C(=O)O)cc1
    5%, 2, ?, -22%
- CC(=O)NC1C(OC(=O)Cc2ccccc2)OC(COC(C)=O)C(OC(C)=O)C1OC(C)=O (configuration not stated)
    0%, 5, -1.3%, 7%
- O=C1NC(=O)C(C(CC(=O)c2ccccc2)c2ccccc2)C(=O)N1 (configuration not stated)
    2%, 7, 0.4%, 1%
- ClCCN(CCCl)c1ccc(C2=NCCc3ccccc32)cc1
    ·, ·, ?, -11%
- Cc1ccc(N2C(=O)NC(=O)/C(=C\c3ccoc3)C2=O)cc1
    1%, 5, ?, ?
- COc1cc2c(cc1OC)C(C)NCC2 (configuration not stated)
    ·, 2&6, 1.7%, 0%
- NC1=C([N+](=O)[O-])C(c2ccc3c(c2)OCO3)c2c(c3ccccc3oc2=O)O1 (configuration not stated)
    1%, -19, -0.3%, -13%
- CCCCn1c(O)c(C(CC)=Nc2cccc(C(=O)O)c2)c(=O)[nH]c1=O
    1%, 6, 1.7%, 7%
- Cc1nc(SCc2c(Cl)cccc2Cl)nc(OC(=O)N(C)C)c1C
    -16%, 1, -1.7%, 17%
- CC(=O)NCCc1c[nH]c2ccccc12
    -3%, -7&-4, -2.4%, -1%
- CN(C)C(=O)Oc1ccc(OC(=O)c2ccccc2)cc1
    -17%, -9, 7.7%, -10%
- Cc1ccc(S(=O)(=O)N2CC2(C)CCl)cc1 (configuration not stated)
    -4%, 2, 1.3%, -11%
- CCCN1CCC(NC2CCC(O)CC2)CC1 (configuration not stated)
    0%, ·, -3.6%, 22%
- Cn1c(O)c(/C=C/C=Nc2ccccc2)c(=O)n(C)c1=O
    -8%, -7, ?, ?
- C=C(C)[C@@H]1C2C(=O)O[C@H]1[C@H]1OC(=O)[C@@]34OC3C[C@]2(O)[C@@]14C (some centres not stated)
    ·, ·, -1.4%, -3%
- O=C(COC(=O)Cc1ccccc1)Nc1ccc(Cl)cn1
    1%, 7, -2.5%, 2%
- C[C@]12CC[C@H]3[C@@H](CC[C@]4(O)C[C@@H](O)CC[C@]34C=O)[C@@]1(O)CC[C@@H]2C1=CC(=O)OC1
    ·, ·, -2.5%, -15%
- C[C@]12CC[C@@H](O)CC1=CCC1C2CC[C@@]2(C)C1C[C@@H](F)[C@@H]2O (some centres not stated)
    ·, ·, 1.9%, 1%
- C[N+]1(C)C2CCC1CC(OC(=O)c1ccco1)C2 (configuration not stated)
    -8%, -3, -0.2%, -1%
- Cc1ccc(-n2nc(C)cc2NC(=O)COc2cc(C)cc3oc(=O)c4c(c23)CCC4)cc1
    23%, -3, -1.8%, -15%
- Cn1c(O)c(C=NC2C(=O)C3(C)CCC2C3(C)C)c(=O)n(C)c1=O (configuration not stated)
    -6%, 1, 2.8%, 32%
- CCN1C[C@@]2(COC)C3[C@@H](OC)[C@H]4[C@@H]1[C@@]3(C1C[C@@]3(O)[C@H](OC(=O)c5ccccc5)C1[C@]4(OC(C)=O)[C@@H](O)[C@H]3OC)[C@@H](OC)C[C@H]2O (some centres not stated)
    ·, ·, 0.0%, 27%
- CCCCOC(=O)C1=C(N)OC2=C(C(=O)CC(C)(C)C2)[C@]12C(=O)N(C)c1ccccc12
    -23%, -1, 0.6%, 11%
- CN(C)C(=O)Oc1cc(=O)n2c3c(cccc13)CCC2
    -9%, -4, 3.1%, -6%
- N#CC(C#N)=Cc1ccc(N2CCCC2)cc1
    -3%, 8, ?, ?
- O=C(CCN1CCOCC1)Nc1ccc(Br)cc1C(=O)c1ccccc1
    -1%, ·, 0.9%, 0%
- COc1ccc(NC(=O)c2ccc(NC(=O)c3nc4nccc(C)n4n3)cc2)cc1
    ·, ·, ?, -14%
- COc1ccc(N=Cc2c(O)n(Cc3cccs3)c(=O)[nH]c2=O)cc1
    0%, 10, ?, 0%
- Cc1ccc(OCC(=O)N2CCN(Cc3ccc([N+](=O)[O-])cc3)CC2)cc1
    15%, -5, 3.8%, 12%
- CCc1cc(=O)[nH]c(SCCCF)n1
    -2%, -1, -2.4%, 2%
- CN(C)CC1CSCCC1(O)c1ccccc1 (configuration not stated)
    -4%, 3, -5.6%, 4%
- CCS(=O)(=O)Nc1ccc(C2=NN(C(=O)c3ccco3)C(c3ccc(Cl)o3)C2)cc1 (configuration not stated)
    ·, ·, ?, 22%
- CC(=O)Nc1ccc(CC(=O)N2CCN(Cc3ccccc3)CC2)cc1
    8%, ·, 4.7%, 10%
- COc1ccc(N=C2SCCCN2C)cc1
    -5%, 6, -0.7%, -10%

Screening data as filed in PubChem BioAssay.

A portion of the library (hit frequency here may not be typical).
